Bioassay records deposited in PubChem by National Center for Advancing Translational Sciences (NCATS).
gsp antag: qHTS for Antagonists of gsp, the Etiologic Mutation Responsible for Fibrous Dysplasia/McCune-Albright Syndrome: qHTS. gsp-mutant cells, cAMP HTRF, 30 min; control for the full effect not named in the record. actives 0.4% (n = 340,000). Potency, µM (highest dose often 76.9 µM), without a hit: top-dose activity change, negative = inhibition, actives largely listed as inhibitors; active = falling curve of any shape with a large fitted effect; inconclusive = falling curve, mostly with a smaller effect; inactive = flat or rising curve; cell line not stated here;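 note: intracellular cAMP measured with PDE inhibitor Ro 20-1724 present during compound exposure; potency is the fitted concentration of half-maximal effect; % is set by controls: 0 for no effect and ±100 for the full control effect; nearly all actives have a fitted effect of over 65% in size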
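Cells, 2000/well, grown 16–24 h in DMEM 10% FBS with 0.5 mg/ml G418, then compounds plus […] (300 uM addition stock), 30 min at 37C. cAMP read by HTRF (cAMP-d2 and anti-cAMP antibody-K in lysis buffer) after 30 min RT.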
ClpP mod: qHTS Assay for Activators of ClpP; ATP-dependent Clp protease proteolytic subunit (Bacillus subtilis (strain 168)), P80244; purified B. subtilis ClpP, FRET peptide cleavage, 20 min; Potency, µM (titrated, usually from 57.5 µM), without a hit: at the top dose activity change, negative = active; actives 1.9% (n = 340,000); active = well fitted falling curve with a large enough effect; inconclusive = small, poorly fitted or top-dose-only effect; inactive = no such curve, though single readings can be large or run the other way; note: potency is the fitted concentration of half-maximal effect; the source files actives as falling curves though it sought activators and does not explain the sign; nearly all actives have a fitted effect of over 65% in size; many hits overshoot -100%
Target sequence (P80244 whole entry, looked up): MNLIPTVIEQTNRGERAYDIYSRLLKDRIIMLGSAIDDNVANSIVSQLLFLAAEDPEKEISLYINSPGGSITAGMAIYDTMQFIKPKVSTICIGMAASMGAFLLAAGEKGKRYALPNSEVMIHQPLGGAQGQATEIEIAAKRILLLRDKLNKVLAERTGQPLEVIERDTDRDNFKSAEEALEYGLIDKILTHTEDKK
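FRET quenching reversal measured ClpP activation: 10 microg/mL B. subtilis ClpP at pH 8 with the FRET-FV decapeptide, read at 430 nm after 320 nm excitation. The 20-min minus 0-min signal was scaled between DMSO/no-enzyme wells and ADEP (5.8 microM final).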
Sfp inh: qHTS Assay for Inhibitors of Bacillus subtilis Sfp phosphopantetheinyl transferase (PPTase); 4'-phosphopantetheinyl transferase ffp (Bacillus subtilis), Q9F4F7; Biochemical Sfp PPTase activity, qHTS; Potency, µM, without a hit: max response, negative = inhibition, hits mostly inhibitors; actives 3.5% (n = 310,000); AID 1490, 2009; active = well fitted inhibition curve with a large enough effect; inconclusive = small, poorly fitted or top-dose-only effect, or another doubt; inactive = no such curve, though single readings can be large or run the other way;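 note: the enzyme is Sfp with the accession as filed and its product quenches rhodamine fluorescence; potency is the fitted concentration of half-maximal effect; 0% = enzyme reaction without inhibitor and -100% = no enzyme wells; top concentration of the series not given in the record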
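Fluorescence-quenching assay with 15 nM Sfp, 5 uM rhodamine-CoA and 12.5 uM BHQ-2-labelled ybbR peptide in pH 7.6 Hepes/MgCl2 buffer. Enzyme was pre-incubated with compound for 15 min at room temperature. Rate was taken from the 30-min fluorescence change (525/598 nm).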
Menin-MLL FL inh: qHTS Assay for Inhibitors Targeting the Menin-MLL Interaction in MLL Related Leukemias: Competition With Fluorescein Labeled MLL-derived Peptide. AID 1766, 2009. FP activity change, % at 61.4 µM. Fluorescence polarization, fluorescein-MLL peptide displacement from menin. 290,000 tested, under 10 active; inconclusive = falling polarisation curve, or a change in total fluorescence; inactive = total fluorescence flat and polarisation flat or rising; no compound was filed as active; the % refers to the polarisation; negative = inhibition;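 note: % of control where 0% means no effect; inhibitors lower the polarisation; unlabelled MLL peptide was the positive control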
D2 agonist: Beta-Arrestin HTS for Positive Allosteric Modulators of the Human D2 Dopamine Receptor: Agonists. D(2) dopamine receptor (Homo sapiens), P14416. DiscoveRx PathHunter D2 beta-arrestin, luminescence, 90 min; 100% = 57 uM dopamine signal. activation, % (no concentration beside the values). actives 0.084% (n = 360,000). AID 624465, 2012; in the data active = activation above about 40%; inconclusive = about 15% to 40%; inactive = below about 15%; note: compound concentration not given in the record; the text of the record calls up to 30% inactive
Target sequence (P14416 whole entry, looked up): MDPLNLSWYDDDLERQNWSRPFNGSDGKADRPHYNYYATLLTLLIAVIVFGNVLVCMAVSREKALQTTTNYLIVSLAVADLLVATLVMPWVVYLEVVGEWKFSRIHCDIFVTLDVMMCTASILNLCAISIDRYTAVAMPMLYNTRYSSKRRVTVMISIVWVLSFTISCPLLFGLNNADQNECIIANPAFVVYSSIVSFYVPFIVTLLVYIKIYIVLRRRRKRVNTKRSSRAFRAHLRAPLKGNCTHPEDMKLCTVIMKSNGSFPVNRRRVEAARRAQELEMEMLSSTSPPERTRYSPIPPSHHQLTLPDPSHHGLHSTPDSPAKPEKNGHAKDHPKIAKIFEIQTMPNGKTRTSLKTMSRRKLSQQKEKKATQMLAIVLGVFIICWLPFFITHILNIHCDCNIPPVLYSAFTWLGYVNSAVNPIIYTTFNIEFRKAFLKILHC
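Agonist mode: compounds alone added to overnight-plated D2 PathHunter cells for 90 min at 37 C, with 57 uM final dopamine (EC100) defining full response. Beta-arrestin recruitment detected by chemiluminescent reagent, read after 1 h at ambient temperature.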
PINK1 modulator: A Quantitative High throughput Screen to Identify Chemical Modulators of PINK1 Expression | PINK1 immunofluorescence, high-content cytometry, 24 h | Potency, µM (top dose mostly 76.6 µM), for the others: at the highest dose activation (PINK1 increase), actives largely listed as activators | actives 0.2% (n = 410,000) | AID 624263, 2012; active = well fitted activation curve with a large enough effect; inconclusive = small, poorly fitted or top-dose-only effect; inactive = flat fitted curve, though single readings scatter; cell line not stated here;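 note: potency is the fitted concentration of half-maximal effect; % of control where 0% means no effect; nearly all actives have a fitted effect of over 65% in size; a mitochondrial uncoupler was the plate control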
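PINK1 protein, normally rapidly degraded, was detected by immunofluorescence after 24 hour compound treatment of a stable cell line. Titration data (5 concentrations) came from laser-scanning cytometry, with CCCP-treated wells as controls.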
gsp agonist: qHTS for Agonist of gsp, the Etiologic Mutation Responsible for Fibrous Dysplasia/McCune-Albright Syndrome: qHTS | actives 0.13% (n = 340,000) | Potency, µM (doses to about 76.9 µM), for inactives: at the highest dose activation (cAMP increase), most hits filed as activators | gsp mutant cells, cAMP HTRF, 30 min; control for the full effect not named in the record | AID 624287, 2012; active = well fitted activation curve with a large enough effect; inconclusive = small, poorly fitted or top-dose-only effect, or another doubt; inactive = no such curve, though single readings can be large or run the other way; cell line not stated here;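 note: phosphodiesterase inhibitor Ro 20-1724 added with compounds to block cAMP breakdown; potency is the fitted concentration of half-maximal effect; nearly all actives have a fitted effect of over 60% in size; about a fifth of the inactives were tested at one dose only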
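Cells in DMEM/10% FBS with G418 were pretreated with compounds in DMSO plus […] (300 uM stock) for 30 min at 37C. cAMP was measured by HTRF (cAMP-d2 plus anti-cAMP antibody-K) after 30 min at room temperature.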
An asterisk follows results filed as active; u = inconclusive; x = not tested or not shown; [ ] = dose if it differs, or a comment. The order is random (roughly 5.1% active in at least one column).

SMILES	gsp antag	ClpP mod	Sfp inh	Menin-MLL FL inh	D2 agonist	PINK1 modulator	gsp agonist
COc1ccc2nc(C)cc(SCC(=O)OC(C)C)c2c1	-2%	x	18%	-0.6	-5.7	0.0%	22%
Cc1cc(N2CCC(N(C)C3CCCC3)CC2)nc2cc(O)ccc12	2%	5.0%	0%	-3.2	-3.1	6.0%	-30%
C=C1N(c2cccc(Cl)c2)C(=O)OC1(C)C	3%	x	1%	-2.4	1.3	2.6%	5%
CCN(CC)C(=O)C1CCCN(c2ncnc3c2cnn3-c2ccc(Cl)cc2)C1 (stereo unspecified)	-16%	-12%	-4%	-1.6	4.3	-0.5%	1%
c1cncc(-c2nn3c(Cn4cnc5ccccc54)nnc3s2)c1	15%	-0.3%	-83%	5.1	2.1	x	u
Cc1sc2ncnc(SCC(=O)NCC3CCCO3)c2c1C (stereo unspecified)	1%	-5.4%	x	x	2.4	-1.5%	u
O=C(Nc1ccc2c(c1)nc1n2CCSC1)c1ccco1	3%	-1.4%	-11%	6.4	-3.5	-0.9%	-25%
CCC1CCCCN1C(=O)CSc1nnc(-c2cccs2)o1 (stereo unspecified)	0%	-19%	-11%	-0.6	0.6	0.4%	14%
O=C(CCC(=O)N1CCCCCC1)NCc1ccc(F)cc1	11%	2.5%	16%	-0.4	-4.5	2.1%	19%
Cc1cccc(OCCCC(=O)NCc2ccco2)c1	3%	-2.1%	10%	1.6	0.2	0.9%[38.3 µM]	5%
COc1nc(Nc2ccc(O)cc2)nc(OC(C(F)(F)F)C(F)(F)F)n1	2%	-0.5%	33%[activator]	-1.3	2.0	4.2%	17%
O=C(NCCc1ccc(Cl)cc1)C1CCN(S(=O)(=O)c2cccs2)CC1	u	-1.9%	10%	0.8	-3.4	-2.5%	14%
Cc1[nH]c2ccccc2c1C(=O)CSc1ccccn1	-5%	x	11%	0.3	-1.2	-0.7%	-1%
O=C(COC(=O)Cc1ccccc1F)Nc1cccc(S(=O)(=O)NC2=NCCCCC2)c1	7%	-0.8%	11%	-1.9	-1.4	3.6%	-3%[15.4 µM]
COc1ccc(S(=O)(=O)Nc2ccc3c(c2)C(=O)N([C@H](C)CO)C[C@H](C)[C@@H](CN(C)C(=O)Nc2ccc4c(c2)OCO4)O3)cc1	-1%	-0.1%	x	x	-2.2	2.1%	x
CCOc1ccc(CCNC(=O)c2cccnc2N2CCCC2)cc1OCC	3%	-2.4%	9%	-2.1	-1.4	5.8%	9%
CCOc1ccc(S(=O)(=O)c2ccc(C)cc2)c2c1no[n+]2[O-]	x	0.2%	x	x	-1.2	2.3%	-58%[inhibitor]
Cc1ncc([N+](=O)[O-])n1S(=O)(=O)c1cc(Cl)ccc1Cl	-2%	-0.2%	24%	-3.6	2.7	-2.2%	16%[15.4 µM]
Cc1cc(S(=O)(=O)NC(C)C)ccc1OCC(=O)Nc1ccc2c(c1)OCCO2	-5%	x	-8%	29	-5.9	0.6%	30%[15.4 µM]
Cc1cc(C)c2[nH]c(=O)c(CN(Cc3cccs3)C(=S)NCC3CCCO3)cc2c1 (stereo unspecified)	9%	-4.7%	-1%	7.8	-1.2	2.6%	-25%
O=C(Nc1ccc(Br)cc1)c1cc(-c2cccs2)on1	4%	x	11%	-1.9	-2.7	3.0%	7%
Cc1ccc(NC(=O)C(c2ccccc2)N2CCN(CC(=O)N3CCOCC3)CC2)cc1 (stereo unspecified)	2%	-0.8%	x	x	1.3	0.3%	u
COc1cccc(NC(=O)c2cccc(C(=O)Nc3cccc(OC)c3)c2)c1	6%	-3.3%	7%	-1.2	-0.4	6.5%	4%[15.4 µM]
O=S(=O)(Nc1ccc(N2CCCCC2)cc1)c1ccccc1	-11%	1.4%	-6%	4.5	-0.8	11%	-10%
O=C(CSc1nnc(-c2cccnc2)n1Cc1ccco1)N1CCc2ccccc21	-1%	1.5%	20µM*	u	-2.5	-1.1%	-35%[inhibitor]

Continuation.
SMILES	gsp antag	ClpP mod	Sfp inh	Menin-MLL FL inh	D2 agonist	PINK1 modulator	gsp agonist
O=C(COC(=O)c1c[nH]c(=O)[nH]c1=O)NCc1ccccc1	8%	-0.6%	15%	5.0	-1.2	4.8%	23%
COC(=O)c1ccc(CN(c2ccccc2OC)S(=O)(=O)c2cccs2)o1	11%	1.0%	-1%	3.5	0.4	-2.6%	-49%[inhibitor]
Cc1ccc(CNC(=O)C2CCN(S(=O)(=O)c3ccc4c(c3)OCCCO4)CC2)cc1	-6%	-3.2%	-8%	3.1	-0.5	1.2%	4%
CCOc1ccc(C2C3=C(CCCC3=O)Nc3ccc4ncccc4c32)cc1 (stereo unspecified)	u	-27%	-7%	1.3	-1.8	3.2%	-16%
O=C(NCCCN1CCN(Cc2ccccc2)CC1)C1CCN(c2nnc(-n3cccc3)s2)CC1	4%	2.1%	3%	0.1	0.4	1.6%	-14%
COc1ccc(-c2csc(N3C(=O)C4C5c6ccccc6C(c6ccccc65)C4C3=O)n2)cc1 (stereo unspecified)	14%	0.6%	12%	-2.2	-0.9	0.5%	-48%[inhibitor]
CCS(=O)(=O)n1c(Cc2cccs2)nc2ccccc21	-9%	-4.8%	x	x	-2.7	0.2%	6%
COc1cccc2c(=O)n(CC(=O)NC3CCCCC3)ccc12	15%	u	8%	4.0	-0.8	1.1%	-2%
COc1ccc(CCN(C)C2CCCN(S(C)(=O)=O)C2)cc1OC (stereo unspecified)	-5%	-1.3%	4%	0.0	-2.9	-0.1%	-24%
CCCSc1nnc(NC(=O)c2sc3nc(-c4cccs4)ccc3c2N)s1	15%	u	-21%	u	-1.5	9.9%	0%
CNC[C@H]1Oc2c(NS(=O)(=O)c3ccc(OC)cc3)cccc2C(=O)N([C@H](C)CO)C[C@@H]1C	4%	-1.2%	x	x	-0.9	1.7%	x
CCNc1nc(NC(C)(C)C)nc(N(CC)n2cnnc2)n1	-2%	-2.0%	4%	-1.2	-0.5	x	-11%
CSc1ccc(S(=O)(=O)NCC(=O)OCC(=O)NCC2CCCO2)cc1[N+](=O)[O-] (stereo unspecified)	2%	x	x	x	-1.7	0.0%	23%[15.4 µM]
Cc1cc(NC(=O)/C=C/c2ccc(Cl)cc2)no1	2%	-5.7%	-9%	2.8	-3.0	u	21%
CC1(C(=O)NS(=O)(=O)c2ccc3c(c2)CCO3)CCN1C(=O)c1ccccc1CCc1ccccc1 (stereo unspecified)	x	-0.6%	x	x	4.5	1.2%	x
CCCCNc1nc2cccnc2s1	5%	-3.5%	14%	1.9	-2.8	0.9%	27%
CC1=C(/C=C/C(C)=C/C=C/C(C)=C/C=C/C=C(C)/C=C/C=C(C)/C=C/C2=C(C)CCCC2(C)C)C(C)(C)CCC1	x	x	5%	-0.3	x	1.4%	x
Cc1ccc(S(=O)(=O)N(C)c2ccc(C(=O)Nc3ccccc3C(=O)N3CCOCC3)cc2)cc1	-4%	18µM*	11%	x	-1.1	-1.1%	4%[15.4 µM]
COc1cc(-c2nc(CN3CCCCC3CCNC(C)=O)c(C)o2)ccc1F (stereo unspecified)	15%	-6.6%	4%	-2.0	-2.7	-1.6%	2%
CCc1cccc2c(C(=O)CSc3nncn3C)c[nH]c12	4%	-15%	17%	-4.3	-0.5	0.2%	16%[15.4 µM]
Cc1cc2c(cc1S(=O)(=O)N1CCN(c3cccc(C)c3C)CC1)OCCN2C	-8%	28µM*	-4%	-0.5	0.0	0.4%	-32%[inhibitor]
O=C(Nc1ccc(Cl)c(S(=O)(=O)N2CCCC2)c1)c1nn(CCO)c(=O)c2ccccc12	0%	-0.1%	x	x	2.1	4.1%	-8%
CCN1C(=O)/C(=C\N2CCN(C(=O)c3ccco3)CC2)SC1=S	-3%	x	8%	3.8	-1.7	0.3%	2%[15.4 µM]
O=C(CN1C(=O)NC2(CCCCCCC2)C1=O)NCc1ccccc1Cl	5%	3.4%	x	x	1.2	0.3%	u
O=[N+]([O-])c1cccc(CN2CCN(Cc3ccco3)CC2)c1	15%	-2.0%	u	-4.8	-4.4	-0.2%	1%

(further entries)
SMILES	gsp antag	ClpP mod	Sfp inh	Menin-MLL FL inh	D2 agonist	PINK1 modulator	gsp agonist
C=C(C)Cn1c(CCn2c3ccccc3c3ccccc32)n[nH]c1=S	-3%	-1.8%	6%	1.3	5.8	2.0%	-41%
Oc1c(C(Nc2ccccn2)c2ccccn2)ccc2cccnc12 (stereo unspecified)	-20%	1.0%	11%	1.8	-1.1	-0.3%	11%
COC(=O)C1=C(C)NC(C)=C(C(=O)OC)C1C(=O)OCC(=O)N1CCCCC1C (stereo unspecified)	6%	-21%	x	x	-1.6	2.0%	-9%[15.4 µM]
CCN(CC)NC(=O)Nc1ccccc1	13%	x	12%	0.9	-4.9	1.1%	2%
Cc1ccc(S(=O)(=O)N2CCN(c3ccc(N4CCOCC4)nn3)CC2)cc1[N+](=O)[O-]	6%	-5.8%	x	x	1.2	1.3%	-7%[15.4 µM]
O=C(CSc1nnc(-c2ccccc2)n1-c1ccccc1)N1c2ccccc2Sc2ccccc21	3%	1.6%	1%	5.7	-2.2	u	2%
CC12CCC(=O)N1C(C(=O)NCc1ccccc1Cl)CS2 (stereo unspecified)	2%	-0.6%	x	x	-5.9	1.2%	-10%
O=C(NCc1cccnc1)c1cccc(S(=O)(=O)Nc2cccc(Cl)c2)c1	-3%	1.8%	x	x	8.5	-2.4%	12%
